Source: PubChem BioAssay (Center for Chemical Genomics, University of Michigan)
TAR Tat displ – HIV-1 TAR-Tat binding disruption; HIV-1 TAR RNA, Tat peptide displacement FRET; stronger effect = higher value; z-score (no concentration beside the values); 100,000 compounds, 0.6% hits; AID 1259389;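 note: score is relative to mean and SD of negative controls; some compounds called inactive have numbers as strong as hits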
CDC25B-CDK2 inh – human CDC25B-CDK2/CyclinA binding inhibition | HTRF CDC25B-CDK2/CyclinA binding, anti-His/anti-Flag; stronger effect = higher value | z-score (test concentration not listed) | P30305+P24941 | 94,000 compounds, 0.72% hits;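 note: score is relative to mean and SD of negative controls; strong numbers were not always called active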
* marks the source's active call; other numbers are inactive results; . = no result given.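 Rule for the calls: active = z-score from 3 up in half or more of its runs; inactive = the rest.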

Results follow in this order: TAR Tat displ	CDC25B-CDK2 inh
CN(C)c1ccc(NC(=O)c2cc3n(n2)C(C(F)(F)F)CC(c2ccco2)N3)cc1 (configuration not stated)
 : -2.5	-2.1
CCOCCn1c(CN2CCN(C)CC2)nc2c1c(=O)n(C)c(=O)n2C
 : .	-0.23
Cc1c(C(=O)N2CCCC2)oc2c1-c1nn(CC(=O)NC3CCC(C)CC3)cc1CC2 (configuration not stated)
 : 2.7	.
CCOC(=O)c1c(C)[nH]c(C)c1S(=O)(=O)N1CCCC(C(=O)Nc2nc(C)cs2)C1 (configuration not stated)
 : -0.25	.
CCCCN(C)C(=O)CCS(=O)(=O)c1cc(Br)cc2c1N(C(=O)CC)CC2
 : .	2.8
COc1ccc(CNS(=O)(=O)c2cc(-c3cnc(C)o3)ccc2C)cc1
 : 1.4	.
CC1=C(C(=O)OCc2ccccc2)C(c2ccncc2)C2=C(CC(c3ccccc3)CC2=O)N1 (configuration not stated)
 : 1.4	-1.6
Cc1ccn2c(Nc3ccc4c(c3)OCO4)c(-c3ccc(C)o3)nc2c1
 : .	1.7
CC(C)(C)c1cc(C(F)(F)F)n(-c2nc(C(=O)N3CC4CC(C3)c3cccc(=O)n3C4)cs2)n1 (configuration not stated)
 : 1.6	.
Cn1cnc2c(=O)oc3ccc(S(=O)(=O)N4CCC(Cc5ccccc5)CC4)cc3c21
 : -0.22	.
COCCCNC(=O)Nc1ccc2c(c1)CCN2S(=O)(=O)c1ccccc1
 : 2.1	.
O=C(c1cc2c(s1)-c1ccccc1OC2)N1CCc2ccccc21
 : 0.76	-0.33
CC1CN(S(=O)(=O)c2ccc(CN3C(=O)c4cccnc4C3=O)cc2)c2ccccc2O1 (configuration not stated)
 : 1.3	.
Cn1ncc2c(Nc3ccc(F)cc3)nc(N3CCN(C4CCCCC4)CC3)nc21
 : -2.2	.
CCc1nn(CC(=O)NCCCN2C(C)CCCC2C)c(=O)c2cc3occc3n12 (configuration not stated)
 : -0.22	-1.3

Next section
Results follow in this order: TAR Tat displ	CDC25B-CDK2 inh
CCOCCCNC(=O)Cn1ncn2c(cc3sc(C)cc32)c1=O
 : 0.6	-0.24
COc1ccc2[nH]c3c(=O)n(CCC(=O)NC4CC4)c(=S)[nH]c3c2c1
 : .	-1.5
Cc1noc(-c2cc(S(=O)(=O)N3CCc4ccccc4C3)c(C)s2)c1C
 : 2.4	.
CC(=O)c1cccc(N/C=C\C(=O)c2ccc(Cl)c(Cl)c2)c1
 : .	1.1
CCOc1ccccc1-c1c(C#N)c(N)nc2c1CCCCC2
 : 0.58	-1.8
Cc1cccc(C(=O)OCc2cc(=O)n3oc(C)cc3n2)c1
 : -0.52	.
CCOC(=O)C(C)CCNC(=O)c1sc2nc(C)nc(N3CCOCC3)c2c1C (configuration not stated)
 : .	-1.9
CCCN1CN=C(NS(=O)(=O)c2ccc(C)cc2)NC1
 : -0.62	-1.4
COCCNC(=O)c1cnc2c(C)cccn2c1=O
 : 2.7	.
Cc1nnc(NC(=O)CSc2nc3c(c(=O)n2C)SCC3)s1
 : 2.3	0.74
Cn1c(=O)n(C)c2cc(S(=O)(=O)Nc3ccc(C(=O)O)cc3)ccc21
 : 0.63	-0.2
COc1ccc(-c2csc(Nc3ccc(N(C)C)cc3)n2)cc1
 : -3.2	-1.8
CCOC(=O)c1ccc(-n2nnc3c(sc4nc(C)cc(C)c43)c2=O)cc1
 : 0	-0.61
CCCN1C(=O)c2cc3sccc3n2CC1(C)C(=O)NC1CCCC1 (configuration not stated)
 : 1	-1.4
O=C(NC(=S)NCCc1ccccn1)c1ccccc1
 : .	-1.2

Further entries:
Results follow in this order: TAR Tat displ	CDC25B-CDK2 inh
CCn1c(C)c(C2=CCN(S(=O)(=O)c3cccc4nsnc34)CC2)c2ccccc21
 : 0.95	-0.74
O=C(CN1CCOCC1)N1c2ccccc2CCc2ccccc21
 : 0.32	-0.32
Fc1cccc(Cl)c1-c1nnc2ccc3ccccc3n12
 : 3.7	0.02
CCOc1cc2c(cc1OCC)C(c1ccc(OC)c(OC)c1)OC(=O)C2 (configuration not stated)
 : .	0.08
O=C1c2ccccc2C(=O)c2c(NCCc3ccc(O)cc3)ccc(NCCc3ccc(O)cc3)c21
 : .	2.7
CCN(CC)S(=O)(=O)c1ccc(CN2C(=O)c3cccnc3C2=O)s1
 : 0.18	.
CCOCCCNC(=O)CN1C(=O)CCn2nc(-c3cccn3C)cc21
 : 0.65	.
O=C(CSc1nc2c(c(=O)[nH]1)CCCC2)Nc1ccccc1Br
 : 1.3	-2.2
CC1CCN(c2nc(Nc3cccc(Cl)c3)c3cnn(C)c3n2)CC1
 : 0.8	.
CCCCN1C(=O)N(c2ccc(C)c(Cl)c2)C2CS(=O)(=O)CC21 (configuration not stated)
 : 0.73	-0.09
CC1CCN(S(=O)(=O)c2ccc3c(c2)C(C)(C)C(=O)N3CC(=O)Nc2nccs2)CC1
 : -0.05	.
Cc1c(C(=O)N2CCC(C)CC2)c(S(=O)(=O)N2CC(=O)Nc3ccccc32)c(C)n1C
 : 0.75	.
CCCc1nc2ccccc2n1CC(O)COc1ccccc1C (configuration not stated)
 : 0.61	-2.2
O=C(O)CC(CC(=O)NCC(O)c1ccccc1)c1ccccc1 (configuration not stated)
 : .	1.9
O=C1c2ccccc2-c2onc3c(N4CCOCC4)cc(N4CCc5ccccc54)c1c23
 : 0.08	-1.8

Given as comma-separated lines: part of the list above
Structure,TAR Tat displ,CDC25B-CDK2 inh
O=C(CN1CCOCC1)N1c2ccccc2CCc2ccccc21,0.32,-0.32
Fc1cccc(Cl)c1-c1nnc2ccc3ccccc3n12,3.7,0.02

Returning to the listing; the 4 compounds before the break are reprinted first.
Results follow in this order: TAR Tat displ	CDC25B-CDK2 inh
Cc1c(C(=O)N2CCC(C)CC2)c(S(=O)(=O)N2CC(=O)Nc3ccccc32)c(C)n1C
 : 0.75	.
CCCc1nc2ccccc2n1CC(O)COc1ccccc1C (configuration not stated)
 : 0.61	-2.2
O=C(O)CC(CC(=O)NCC(O)c1ccccc1)c1ccccc1 (configuration not stated)
 : .	1.9
O=C1c2ccccc2-c2onc3c(N4CCOCC4)cc(N4CCc5ccccc54)c1c23
 : 0.08	-1.8
O=C(CSc1nnc2c3ccccc3nc(-c3ccc(F)cc3)n12)N1CCOCC1
 : 0.25	.
Cc1cccc(NC(=O)c2cc(-c3cccs3)on2)n1
 : 2.6	-1.2
NCC(O)(CS(=O)(=O)O)c1ccc(Cl)cc1 (configuration not stated)
 : .	-1.4
COC(=O)c1cnn2c(C(F)(F)F)cc(-c3ccc(OC)c(OC)c3)nc12
 : 2.2	-1.3
CCOC(=O)c1c(NC(C)=O)c2c(C)c(C)sc2n1CC(=O)N(CC)c1ccccc1
 : 1.9	.
Cc1ccn2c(Nc3ccc4c(c3)OCCO4)c(-c3ccccc3O)nc2c1
 : 1.9	-1.7
CC1CN(C(=O)CSc2cn(CC(=O)N3CCCCC3)c3ccccc23)CC(C)O1 (configuration not stated)
 : 1.7	.
Cc1cc(C2CCCN2C(=O)c2cnn3c(C(F)F)cc(-c4ccccc4)nc23)no1 (configuration not stated)
 : 1.4	.
O=C(CN1C(=O)c2ccccc2Sc2ncccc21)Nc1ccc2c(c1)OCO2
 : 13*	.
O=C(CC1(O)C(=O)N(Cc2ccccc2Cl)c2ccccc21)c1cccnc1 (configuration not stated)
 : .	-0.9
CN(C)C(=O)c1ccc2c(c1)N(CC(=O)NCC1CCCO1)C(=O)C1CCCCN21 (configuration not stated)
 : 0.27	.
Cc1csc2nc(COC(=O)c3ccccc3F)cc(=O)n12
 : 0.77	.
CCOCCCNC(=O)C1CCCN(c2ncnc3c2nc2n3CCCCC2)C1 (configuration not stated)
 : 1.1	.
COc1ccc(C2CC(c3cccc(Br)c3)Nc3nnnn32)cc1 (configuration not stated)
 : 2	.
O=C(c1cc(-c2ccc(F)cc2)no1)N1CCCC1c1ccco1 (configuration not stated)
 : 0.08	-1.4

The list continues:
Results follow in this order: TAR Tat displ	CDC25B-CDK2 inh
O=c1c2nccnc2nc(SCc2cccc(F)c2)n1Cc1ccc(Cl)cc1
 : 2.9	-1.1
Cc1cc(C)n(Cc2c(C(=O)NCCC(C)C)noc2C)n1
 : 0.75	.
CCCCCC[n+]1ccccc1/C=C\c1cccs1
 : .	-1.8
CCOC(=O)c1sc(NC(=O)c2csnn2)c(C(=O)OCC)c1C
 : 1	-1.4
Cc1ccsc1CCNS(=O)(=O)c1ccc2c(c1)CCCC(=O)N2
 : -0.71	.
CC(c1ccccc1)n1cc2c(c1-c1cccc(Br)c1)c(=O)n(C)c(=O)n2C (configuration not stated)
 : 1.7	-1.1
CSc1nc2n(n1)C(N)=C(C#N)C(c1ccccc1)N2 (configuration not stated)
 : 4.6	-2.2
O=C(Nc1ccccc1F)N1Cc2cccn2-c2ccccc21
 : 2.4	.
COc1ccc(NC(=O)c2oc3ccc4c(c3c2C)C(=O)CC(C)(C)O4)cc1OC
 : 2	.
COc1ccc2c(c1)CCC/C2=N\N=C(/N)SC
 : .	-1.4
CN1C(=O)C(C)(C)c2cc(S(=O)(=O)N3CCN(C4CCCCC4)CC3)ccc21
 : 1.6	.
COc1ccc(S(=O)(=O)NCCCC(=O)O)cc1
 : 1.3	-0.37
CC(C)NCC(O)c1cc(O)cc(O)c1 (configuration not stated)
 : 0.9	-1.9
O=C(Nc1cccc(Br)c1)N1CCC(CN2CCc3ccccc3C2)CC1
 : 0.25	.
O=C1CC(c2cccs2)c2c(-c3ccccc3)nn(-c3ccccc3)c2N1 (configuration not stated)
 : 0.18	2.6

New compounds follow.
Results follow in this order: TAR Tat displ	CDC25B-CDK2 inh
Cc1cc(NC(=O)C(C)(C)C)cc(-c2nc3cc(Cl)ccc3o2)c1O
 : 3.9	1.6
O=C(Nc1ccc(Cl)cc1)C1CCCN(S(=O)(=O)N2CCOCC2)C1 (configuration not stated)
 : -1.3	.
O=C(NCCN1CCOCC1)c1cnn2c3c(cnc12)CCCCCC3
 : 0.19	.
COC(=O)Cn1c(=O)c2c(nc3n2CCN3c2ccc(F)cc2)n(C)c1=O
 : 2.1	.
CN1CCN(C(=O)Cn2ncn3nc(-c4cccs4)cc3c2=O)CC1
 : -0.72	-0.2
O=C(CCN1C(=O)COc2ccccc21)NCCCN1CCOCC1
 : .	-2.6
Brc1n[nH]c(Br)c1Br
 : .	-0.44
C=CCOc1cc(NC(C)=O)c(C(C)=O)cc1C(C)=O
 : .	-1.1
CCSc1ncc(Cl)c(C(=O)Nc2nc(C)c(C(=O)OCC(C)C)s2)n1
 : 2.1	-1.2
O=C(CSc1nc(-c2ccc(Cl)cc2)nc2cc(=O)[nH]n12)Nc1ccccc1
 : 17	.
O=C1CC(c2nc3ccccc3n2Cc2ccc(Cl)cc2)CN1c1ccccc1 (configuration not stated)
 : 0.62	0.47
O=c1c(C(F)(F)F)cccn1CCc1nc(-c2ccc(Cl)cc2)cs1
 : .	-2.4
O=C(N1CCNCC1)C1(c2ccc(Cl)cc2)CCCC1
 : 0.5	0
CCOC(=O)C1=C(C)NC(C(=O)OCC)CS1 (configuration not stated)
 : .	-2.6
CCOC(=O)/C(C#N)=N/Nc1cc(-c2ccccc2)[nH]n1
 : .	-2.7

Random excerpt: 3 entries already listed
Results follow in this order: TAR Tat displ	CDC25B-CDK2 inh
COC(=O)Cn1c(=O)c2c(nc3n2CCN3c2ccc(F)cc2)n(C)c1=O
 : 2.1	.
CCOC(=O)/C(C#N)=N/Nc1cc(-c2ccccc2)[nH]n1
 : .	-2.7
O=C(NCCN1CCOCC1)c1cnn2c3c(cnc12)CCCCCC3
 : 0.19	.

More records
Results follow in this order: TAR Tat displ	CDC25B-CDK2 inh
O=C(Nc1cc(F)ccc1F)N1CCC(CN2CCCC2)CC1
 : 0.32	.
O=C(NCCS(=O)(=O)c1ccc(C(F)(F)F)cn1)c1ccc(Cl)cc1
 : .	-1.6
CCCOC(=O)C1=C(C)NC2=C(C(=O)CC(C)(C)C2)C1c1ccccc1Cl (configuration not stated)
 : 1.4	-0.67
O=C1CC(c2cccs2)Cc2nc(NCCSc3ccc(Cl)cc3)ncc21 (configuration not stated)
 : 0.17	21*
CCCNC(=O)O/N=C(\N)c1cc(Cl)c(N)c(Cl)c1
 : .	-1.6
Cn1c(=O)c2sccc2n2c(CCC(=O)N3CCN(c4ncccn4)CC3)nnc12
 : -0.27	0.39
Cc1nnc2sc(CCc3ccccc3)nn12
 : 0.34	0.98
COC(=O)C1Cc2cc(OC)c(OC)cc2C(Cc2ccc(OC)c(OC)c2)=N1 (configuration not stated)
 : -0.5	8.9*
O=C(Cn1cc(C(=O)c2ccco2)c2ccccc21)Nc1ccccc1F
 : 1.3	-0.92
O=C1CC(NC2CCN(S(=O)(=O)c3ccccc3)CC2)C(=O)N1c1ccc(F)cc1 (configuration not stated)
 : 2.4	-1.2
CSCCC(NS(=O)(=O)c1ccc2c(c1)oc(=O)n2C)C(=O)N1CCc2ccccc21 (configuration not stated)
 : -0.45	-1.3
O=C(NC1CCCC1)c1ccc(-n2ccc3ccccc32)s1
 : 0.4	.
CCOC(=O)CC1(NC(=O)N2CCn3c(C)ccc3C2CC)CCCCC1 (configuration not stated)
 : -9.3	0.03
CCCSc1nnc2c(n1)OC(CC)=Nc1ccccc1-2
 : -0.66	-1.1
O=C(Cn1c(=O)c2cccn2c2ccc(F)cc21)NCCCN1CCCC1
 : -1	.

Next part:
Results follow in this order: TAR Tat displ	CDC25B-CDK2 inh
O=C1CN(C(=O)CSc2ccc(Cl)cc2)c2ccccc2N1
 : -2	-0.9
CC1=NN(C(=O)COc2cc(C)ccc2C(C)C)C(O)(C(F)(F)F)C1 (configuration not stated)
 : .	-0.49
c1ccc(CCNc2nn3nnnc3c3ccccc23)cc1
 : 0.45	.
COCCNc1ncccc1[N+](=O)[O-]
 : 1.2	0.75
COc1cccc(C2Nc3ccccc3NC3=C2C(=O)CC(c2ccc(OC)c(OC)c2)C3)c1 (configuration not stated)
 : 0.54	-2.3
C=C(C)Cn1c(C2CC(=O)N(c3ccc(F)cc3)C2)nc2ccccc21 (configuration not stated)
 : 0.67	-3
CCOc1cc(C2NC(C(=O)O)CS2)ccc1OCc1ccccc1Cl (configuration not stated)
 : -0.34	-2.8
CCOC(=O)c1sc2nc(N3CCOCC3)c3c(c2c1N)CC(C)(C)N(C)C3
 : 1.9	0.55
